VACV mCherry inh = vaccinia inhibition (mCherry reporter); 310,000 compounds, 0.63% hits; AID 720579; Potency, µM (series often up to 36.5 µM), for inactives: at the highest dose activity change, negative = inhibition, most hits filed as inhibitors; Vaccinia virus mCherry reporter infection, fluorescence; about a quarter of the inactives have no number; active = well fitted inhibition curve with a large enough effect; inconclusive = small, poorly fitted or top-dose-only effect; inactive = no such curve, though single readings can be large or run the other way; tested in A549 cells; also: nearly all actives have a fitted effect of over 35% in size; inactives centre near -10
VACV Venus inh = vaccinia inhibition (Venus reporter) | Vaccinia virus Venus reporter expression, fluorescence | Potency, µM (top dose mostly 36.5 µM), for inactives: at the highest dose activity change, negative = inhibition, usual class: inhibitors | 330,000 compounds, 0.46% hits | AID 720580; active means well fitted inhibition curve with a large enough effect; inconclusive means small, poorly fitted or top-dose-only effect; inactive means no such curve, though single readings can be large or run the other way; tested in A549 cells; also: nearly all actives have a fitted effect of over 30% in size; inactives centre near -10
Starred values were filed as active, the others as inactive; i = inactive; ? = inconclusive; / = no result given; & = joins results of further samples; [ ] = another dose, or the depositor's remark. % is scaled to controls: 0 for no effect and ±100 for the full control effect; potency is read from the fitted curve at half-maximal effect.

Screens in order – VACV mCherry inh, VACV Venus inh
CCOC(=O)c1cc(-c2ccccc2)sc1NC(=O)C(C)OC(=O)c1cccc(S(=O)(=O)N(C)C)c1 (centres undefined)
  i, -9%
CCC(=O)N1CCc2cc(S(=O)(=O)CCC(=O)Nc3nc(C)cs3)ccc21
  -19%, -14%
CS(=O)(=O)N(CC(=O)N1CCCC1)Cc1ccc(Cl)cc1
  i, 2%
COc1ccc(C2C(C(=O)Nc3cccnc3)=C(C)Nc3nc(-c4ccc(OC)c(OC)c4)nn32)cc1 (centres undefined)
  -10%, -10%
C=CCOc1cccc(CNc2ccc3[nH]c(=O)[nH]c3c2)c1
  ?, -23%
O=C(Nc1ccc2ccccc2c1)c1cccc2ccccc12
  i, -16%
CCN(CC)C(=O)CSc1nc(C)cc(C)c1C#N
  i, -14%
C#CCOCCOCCOCCNc1nc(N2CCN(C(=O)[C@H](CCCN=C(N)N)n3cc(C(N)[C@@H](C)CC)nn3)CC2)nc(N2CCN(C(=O)[C@H](CCC(=O)O)n3cc([C@@H](N)[C@H](C)CC)nn3)CC2)n1 (some centres undefined)
  -21%, -5%
O=C(Nc1cccc(-n2cnnn2)c1)C1CCCN(Cc2cccc(C(F)(F)F)c2)C1 (centres undefined)
  -29%, -29%
Cc1ccc(S(=O)(=O)NNC(=O)NC23CC4CC(CC(C4)C2)C3)cc1
  -18%, -9%
O=c1c2cc([N+](=O)[O-])ccc2nc2n1CCCC2
  -11%, -4%
COCCCN(C(=O)c1cc2c(s1)CCC2)c1c(N)n(Cc2ccccc2)c(=O)[nH]c1=O
  -4%, 11%
CCCCC1=CC2=CC(=O)C(C)(OC(=O)CC)C(=O)C2=CN1C1CCCCC1 (centres undefined)
  14%, -10%
O=C(Cn1c(=O)n(Cc2ccco2)c(=O)c2sc3ccccc3c21)Nc1ccc(F)cc1F
  -11%, -8%
CCC1(C)Cc2ccccc2C(Nc2c(C)n(C)n(-c3ccccc3)c2=O)=N1 (centres undefined)
  /, -13%
COc1ccc(NC(=O)N(C)C[C@H]2Oc3c(NC(=O)C4CCCCC4)cccc3C(=O)N([C@H](C)CO)C[C@@H]2C)cc1
  -3%, -5%
NS(=O)(=O)c1cccc(NC(=O)c2ccc(NS(=O)(=O)c3cccc([N+](=O)[O-])c3)cc2)c1
  -11%, -24%
O=C(NCCCN1CCCC1)c1ccc(CS(=O)(=O)c2ccc(Br)cc2)o1
  -9%, 1%
CC1=C(CCC(=O)O)c2cc3nc(cc4[nH]c(cc5[nH]c(cc1n2)c(C)c5C(C)O)c(C)c4C(C)O)C(C)=C3CCC(=O)O (centres undefined)
  -12%, -2%
Nc1ccccc1-c1nc2ccncc2[nH]1
  i, -2%
O=C(C1CCCN(S(=O)(=O)c2cccc3nsnc23)C1)N1CCc2ccccc2C1 (centres undefined)
  -23%, -16%
Cc1[nH]n(-c2nc(-c3ccccc3F)cc(=O)[nH]2)c(=O)c1CCO
  -2%, -4%
O=C(Nc1onc2c1CCCC2)c1ccc(Cl)cc1
  -11%, -17%
Cc1ccc(Cl)cc1NCN1C(=O)c2ccccc2C1=O
  i, -13%
CCc1ccccc1NC(=S)N(Cc1ccc(OC)cc1)CC1CCC(C(=O)O)CC1 (centres undefined)
  -15%, -10%
CCCCc1cc(=O)oc2cc(OC(C)C(=O)NCC3CCC(C(=O)O)CC3)c(Cl)cc12 (centres undefined)
  -4%, -8%
O=S(=O)(c1ccccc1)N1CCN(c2nc(-c3cccnc3)nc3ccccc23)CC1
  -14%, -10%
COc1cc(C(=O)Nc2c(C(=O)Nc3ccccc3F)oc3ccccc23)cc(OC)c1OC
  -24%, -28%
CCNC(=O)NC(=O)C(C)OC(=O)c1cccnc1SC (centres undefined)
  /, -13%
Cc1ccc(NC(=O)COC(=O)c2ccc(=O)n(Cc3ccccc3)n2)cc1F
  -14%, -6%
O=C(Nc1ccc(S(=O)(=O)N2CCC(c3nc4ccccc4s3)CC2)cc1)c1ccccc1F
  ?, ?
COc1ccccc1C#CC1=CC(=O)C[C@H](c2ccc(F)cc2)C1
  -13%, -16%
CC(C)n1cnc2cc(NCc3ccccc3O)ccc21
  -20%, -15%
OC[C@H]1O[C@@H](n2cnc3cncnc32)[C@H](O)[C@@H]1O
  13µM*, ?
O=C(NCC1CCCO1)[C@@H]1CSC2c3ccccc3C(=O)N21 (some centres undefined)
  -9%, -7%
Nc1nc(N)c(N=Nc2ccccc2)c(=O)[nH]1
  -30%, -8%
O=C(Nc1ccc(Cl)cc1)N1CCOC12CCC1(CC2)OCCO1
  4%, -6%
COC(=O)c1ccc(NC(=O)CNCc2ccncc2)cc1
  -8%, 7%
COCCN(C(=O)COC(=O)c1cccnc1Cl)c1c(N)n(Cc2ccccc2)c(=O)[nH]c1=O
  i, -7%
CC(=O)c1ccc(-c2ccc(C(=O)N3CCCc4ccccc43)o2)cc1
  -27%, -17%
Cc1ccc(CNC(=O)CSc2nc3ccccc3c(=O)n2CCCO)cc1
  -5%, -3%
Cn1c(=O)c2c(nc(CCc3ccccc3)n2C)n(C)c1=O
  -14%, -7%
CC1CCC2(CC1)NC(=O)N(CC(=O)N(Cc1ccccc1)C(C)(C)C)C2=O (centres undefined)
  -19%, 3%
COc1ccc(CCNC(=O)Cc2cc(=O)[nH]c(=O)[nH]2)cc1OC
  i, -10%
CCCc1cc(=O)[nH]c2nnc(SCC(=O)Nc3ccc4c(c3)OCCO4)n12
  i, -9%
CCn1cc(S(=O)(=O)c2cccc(C)c2)c(=O)c2cc(F)c(N3CCCC(C)C3)cc21 (centres undefined)
  -11%, -9%
Cc1ccc(S(=O)(=O)N(C)C)cc1NC(=O)c1ccccc1Br
  -2%, 4%
Cc1nn(CCc2nn[nH]n2)c2nc(-c3ccc(Br)cc3)cc(C(F)(F)F)c12
  -22%, -12%
COc1cc(/C=C/C(=O)O)cc(S(=O)(=O)NCc2ccc3c(c2)OCO3)c1OC
  -21%, -12%
CN(C[C@H](Cc1ccccc1)N(CCN(CCc1ccccc1)N=O)N=O)N=O
  i, -7%

Part of the list above, field by field:
Cc1ccc(CNC(=O)CSc2nc3ccccc3c(=O)n2CCCO)cc1
- VACV mCherry inh: -5%
- VACV Venus inh: -3%

Cn1c(=O)c2c(nc(CCc3ccccc3)n2C)n(C)c1=O
- VACV mCherry inh: -14%
- VACV Venus inh: -7%

CC1CCC2(CC1)NC(=O)N(CC(=O)N(Cc1ccccc1)C(C)(C)C)C2=O (centres undefined)
- VACV mCherry inh: -19%
- VACV Venus inh: 3%

COc1ccc(CCNC(=O)Cc2cc(=O)[nH]c(=O)[nH]2)cc1OC
- VACV mCherry inh: i
- VACV Venus inh: -10%

The list continues:
Screens in order – VACV mCherry inh, VACV Venus inh
Cc1ccc(/C=C/C(=O)NCc2cccs2)cc1
  -10%, -5%
CCSc1nnc(NC(=O)C2CCN(S(=O)(=O)c3cc(C(F)(F)F)ccc3Cl)CC2)s1
  -10%, -2%
O=C(COc1ccc2ccccc2c1)NNC(=O)[C@@H]1CCCC[C@@H]1C(=O)O
  i, -7%
COc1cccc(NC(=O)Nc2nnc(-c3ccccc3SCc3ccccc3)s2)c1
  /, -33%
COc1ccc(NC(=O)Cn2c(=O)c(C)nc3ccccc32)cc1Cl
  2%, -4%
c1ccc2c(c1)oc1c(-c3ccc4nccn4c3)cccc12
  -29%, ?
COc1cc2[nH]cc(C(=O)NCc3cccs3)c(=O)c2cc1OC
  ?, -18%
O=C(c1nc2nc(-c3ccccc3)cc(C(F)(F)F)n2n1)N1CCOCC1
  -16%, -11%
CCOc1ccc(NC(=O)CN2CCN(c3ccccc3C)CC2)cc1S(=O)(=O)N1CCCC1
  -26%, -5%
C=CCNc1nc(NCCN2CCOCC2)nc(OC)n1
  /, -16%
CCOC(=O)c1ccc2c(c1)n(CC)c(/C=C/Nc1ccccc1)[n+]2CC
  i, -17%
CCc1ccc(OCC(=O)N/N=C/c2ccc(OS(=O)(=O)c3ccc(C)cc3)c(OC)c2)cc1
  2%, -5%
COc1ccc2nc3oc(C(=O)N4CCN(c5cccc(C(F)(F)F)c5)CC4)cc3cc2c1
  i, -12%
Cc1ccc(-n2nc(C)c3c2C(Br)C(C)(C)CC3=O)nc1 (centres undefined)
  i, -26%
C[C@@H](NC(=O)C(=O)c1c[nH]c2ccccc12)c1ccccc1
  -5%, 1%
CCN(CC)c1ccc(C(=O)N/N=C(\C)c2ccc(O)cc2)cc1
  -25%, -20%
COc1cc(NS(=O)(=O)c2ccc(Nc3nc(-c4ccccc4)cs3)cc2)nc(OC)n1
  -1%, -27%
O=C(O)c1cc(N/N=C/c2ccc(-c3ccc(F)cc3)o2)ccc1Cl
  -27%, -15%
O=C1C(=O)N(Cc2ccccc2)C(=O)N1CCOc1ccccc1
  -13%, 1%
CCO/C=C1\C(=O)N(c2ccccc2)C(=O)c2ccccc21
  -14%, -8%
C[C@]12CCC(=O)C=C1CC[C@@H]1[C@@H]2C(=O)C[C@]2(C)C(=O)CC[C@@H]12
  -21%, -11%
Cc1cc(NC(=O)CSc2nnc(C)c(=O)[nH]2)no1
  -15%, -9%
O=C(CC1C(=O)NCCN1Cc1ccccc1C(F)(F)F)NCCc1ccccn1 (centres undefined)
  -1%, -5%
CC1CCN(C(=O)COc2ncnc3ccccc23)CC1
  i, -4%
CC(=O)Nc1ccc(S(=O)(=O)Nc2ccccc2C(=O)NCc2cccnc2)cc1
  i, -5%
COc1cccc(CNC(=O)C2CCN(S(=O)(=O)c3c(C)nn(C)c3C)CC2)c1
  10%, -5%
CSc1nsc(SCC(=O)Nc2ccc(O)c(C(=O)O)c2)n1
  -21%, -11%
CC(C)(C)NC(=O)COc1ccc(CNCCc2ccccc2)cc1
  i, -14%
O=C(N/N=C/c1ccc(O)c(O)c1O)/C(=C/c1ccc([N+](=O)[O-])cc1)NC(=O)c1ccccc1
  -21%, -8%
CCCCn1c(-c2sccc2C)n[nH]c1=S
  -19%, -7%
COc1ccccc1-c1cnc(C(O)c2cc(C)ccc2C)[nH]1 (centres undefined)
  -9%, 8%
COc1ccccc1N1CCN(C(=O)c2cc(-c3ccc(C)cc3)on2)CC1
  -15%, -14%
Cc1ccccc1NC(=O)Cc1nnc(SCC(=O)NC2CCCCC2)n1C
  -15%, 3%
CN1CCN(C(=O)c2ccc(Oc3ccc([N+](=O)[O-])cc3)cc2)CC1
  0%, 1%
CSc1nnc(-c2nnc(SC)n2-c2ccccc2)n1-c1ccccc1
  -19%, -11%
NCCCCN=C(N)N
  -12%&-8%&-18%, -12%&-12%&-10%
CNS(=O)(=O)c1cccc(C(=O)OCC(=O)Nc2ccc3ccccc3c2)c1
  -4%, -9%
Cc1ccc(C)c(S(=O)(=O)NCCCn2ccnc2)c1
  -11%, -2%
Cc1ccc(NC(=S)NC2CCSc3ccccc32)cc1C (centres undefined)
  -22%, -25%
COC(=O)c1ccccc1NC(=O)CS(=O)(=O)Cc1nc(-c2ccc(C)cc2)oc1C
  ?, -28%
COc1ccccc1C(=O)NC(=O)COC(=O)c1cnccn1
  i, 5%
O=c1c2ccccc2nc(CBr)n1-c1ccc(Cl)cc1
  -2%, -3%
Cc1ccc(/C=C/C2=NN(Cc3ccccc3)C(=O)CC2)cc1
  -6%, 0%
COc1cc(SC)ccc1C(=O)NCc1ccccc1
  0%, ?
COc1ccc(-c2cc(-c3n[nH]c(=S)n3-c3cccc4ccccc34)[nH]n2)cc1
  ?, ?
CC(C)(C)SCCNC(=O)c1ccc(NS(C)(=O)=O)cc1
  -8%, -8%
Cc1ccc(S(=O)(=O)N(C)C)cc1NC(=O)COC(=O)/C=C/c1ccc2c(c1)OCO2
  -22%, -19%
COc1ccc(CNC(=O)c2cc(-n3cnnc3)ccc2Cl)cc1
  i, -8%
CCOC(=O)c1oc2ccc(CNC3CCCCC3)c(Cl)c2c1C
  -15%, -17%
COC(=O)c1ccc(OC(=O)C2CSC3(C)CCC(=O)N23)cc1 (centres undefined)
  i, -13%

(cont.)
Screens in order – VACV mCherry inh, VACV Venus inh
COc1ccc(NC(=O)N(C)C[C@@H]2Oc3ccc(NC(=O)NC(C)C)cc3CC(=O)N([C@H](C)CO)C[C@@H]2C)cc1
  -2%, -3%
CCCCNc1nc(=S)n(-c2ccccc2)c(C)c1C(C)=O
  -5%, ?
COC(=O)C1=C(C(=O)OC)[C@@H]2Nc3ccccc3[C@@]23C[C@@H](C(=O)OC)N=C3N1
  -11%, 1%
O=C(Cn1c(NCCCO)nc2ccccc21)c1cccs1
  i, -9%
CCNC(=O)CC1C(=O)N(C)C(=S)N1NC(=O)c1ccc(Cl)cc1 (centres undefined)
  -20%, -9%
Cc1ccc(NC(=O)Nc2ccc3c(c2)nnn3C)cc1C
  i, -8%
Cn1nc(-c2ccccc2F)c2cc(C(=O)NCc3ccccc3Cl)sc21
  -12%, -8%
CC1=CC(=O)N(c2ccc(C)cc2)C1c1ccc(Cl)cc1 (centres undefined)
  -24%, -13%
Cc1ccc(-n2ncc3c(=O)n(Cc4ccccc4C)cnc32)cc1C
  -8%, -9%
COC(=O)c1ccccc1CCC(C)=O
  -2%[1.46 µM], -13%

Screening results deposited in PubChem BioAssay by National Center for Advancing Translational Sciences (NCATS).
